NPYLR7 agonist: activates Aedes aegypti NPYLR7 receptor | HEK293T NPYLR7/Galpha15, GCaMP6s calcium fluorescence | activation, % at 10 µM | actives 0.15% (n = 270,000); in the data active = activation above about 40%;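 also: 0% = vehicle and 100% = reference agonist at the receptor; some compounds past the cut are filed as inactive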
NPYLR7 agonist max-min: second read-out of NPYLR7 agonist, no call of its own (marks repeat the call); activation, %; measured here: Max-Min RFU normalised activation; some inactives read as strong as hits;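 span of the calcium signal over five minutes; 0% = vehicle and 100% = native peptide agonist; compound fluorescence can raise it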
Starred values were filed as active, the others as inactive; & = joins results of further samples. A portion of the library, so the mix of outcomes need not match the whole.

cpd	mol	NPYLR7 agonist	NPYLR7 agonist max-min
1	CCCNc1ncc(CN2CCC3(CCCN(C)C3=O)C2)cn1 (stereo not given)	-1.8	-0.1
2	CN(C)C(C#N)c1cn(C)c2ccccc12 (stereo not given)	11.7	12.2
3	COCc1nc(-c2cccc(CN3CCN(C(=O)Cc4ccc(OC)nc4)CC3)c2)no1	7.0	7.1
4	Cc1ccc(C(c2ccccc2)N2CCN(C(=O)Cc3cccs3)CC2)cc1 (stereo not given)	24.2	13.9
5	CN(C)[C@@H]1C(=O)C(C(N)=O)C(=O)[C@@]2(O)C(=O)C3=C(O)c4c(O)cccc4[C@@](C)(O)[C@H]3C[C@@H]12 (stereo not given in full)	-10.7&-0.2	-16.4&1.7
6	N#Cc1ccccc1S(=O)(=O)N1CCN(CCOC(c2ccccc2)c2ccccc2)CC1	4.5	2.1
7	C#CCN(C)S(=O)(=O)c1ccc(Cn2nc(C(=O)Nc3nncs3)c3ccccc32)cc1	7.2	15.0
8	COC(=O)NP(=O)(NNc1ccccc1)OC (stereo not given)	4.3	2.2
9	CCOC(=O)C1(CCOc2ccccc2)CCN(Cc2ccc(C)s2)CC1	29.1&6.8	19.4&9.4
10	COc1cc2c(cc1OC)C1(CCCC1)CNC2	7.9	4.8
11	Cc1ccc(P2(=S)C3CCCCC3=NN2c2ccccc2)o1 (stereo not given)	-0.1&2.2	-1.6&0.3
12	NC(Cc1cccc(O)c1)c1ccccc1 (stereo not given)	-4.9	-5.7
13	CN1C(=O)C(=Cc2ccc(N(C)C)c([N+](=O)[O-])c2)C(=O)N(C)C1=O	-12.8	-19.1
14	C#C[C@H]1CN2CC[C@H]1C[C@@H]2CNC(=O)c1ccccc1C(=O)O	-8.4	-16.7
15	CC1(C)CC2=NN(c3ccccc3)P(=S)(Nc3nccs3)C2=C(N2CCOCC2)C1 (stereo not given)	5.6&-1.9	7.0&-2.9
16	Cc1ccc2c(c1)C(c1ccccc1)NCC(=O)N2 (stereo not given)	-3.6	-5.5
17	COc1ccc2ccccc2c1-c1nc2ccccc2c(=O)n1-c1ccc(C)cc1	1.0	-0.8
18	CC(CNc1cncc(Cl)n1)N1CCN(C)CC1 (stereo not given)	0.4	-2.5
19	O=C(Cc1c(F)cccc1F)N1CCN(Cc2cccc(-c3noc(-c4cccnc4)n3)c2)CC1	20.6	12.9
20	O=C1CC[C@@]2(O)C3Cc4ccc(O)c5c4C2(CCN3CC2CC2)[C@H]1O5 (stereo not given in full)	5.1	-45.6
21	CNC(=O)[C@@H]1[C@@H](c2ccccc2)CN2CCN(S(C)(=O)=O)C[C@H]12	2.4	13.0
22	c1ccc2nc(N3CCNCC3)ccc2c1	-10.3&-2.3&2.8&-4.2	-12.7&-5.0&-25.8&-8.2
23	CCN(CC)CCN(C(=O)Cc1ccccc1)c1nc2c(Cl)cccc2s1	-1.7	-4.9
24	O=C1CC[C@@]2(O)[C@H]3Cc4ccc(O)c5c4C2(CCN3CC2CC2)[C@H]1O5	-7.5	-12.1
25	COc1ccccc1-c1ccc(N2C[C@@H]3C[C@@H](C2)c2cccc(=O)n2C3)nn1	2.9	1.6
26	CC(C)(C)P(=S)(c1ccncc1)N1CCCC1 (stereo not given)	0.4	-0.7
27	O=Cc1cn(Cc2ccc(Cl)cc2)c2ccccc12	-16.5	-22.6
28	c1ccc(CCc2cn(CCc3cnc[nH]3)nn2)cc1	-1.4	-5.7
29	CN1C(=CP(=S)(C2CCCCC2)N2CCOCC2)C(C)(C)c2ccccc21 (stereo not given)	4.1	1.7
30	Cc1csc(NC(=O)CSC(c2ccccc2)c2ccccc2)n1	-1.4	-1.1
31	CC(=O)Oc1c2c(c(CC=C(C)C)c3c1C(=O)C1=C[C@@H]4CC5C(C)(C)OC(C/C=C(\C)C(=O)O)(C4=O)[C@@]15O3)OC(C)(CCC=C(C)C)C=C2 (stereo not given in full)	-3.9	-6.7
32	Cc1nc(C)c(CC(=O)N2CCCC3(CCNC3)C2)c(=O)[nH]1 (stereo not given)	-3.9	-4.9
33	O=C(CN1CCCC1)c1cccc(C(F)(F)F)c1	7.6	4.4
34	Cc1ccc(NC2=NCCS2)cc1Cl	-1.5	-4.3
35	CN(C)CC(=O)Nc1ccc2n(c1=O)C[C@H]1C[C@@H]2CN(C(=O)c2cccnc2)C1	-5.3	-15.1
36	Cc1cc(C(=O)Nc2ccc3[nH]cc(CCN4CCOCC4)c3c2)no1	19.3	32.6
37	COc1ccc(N(C)C(=O)c2ccc(Cn3nc(C(=O)NCCCN4CCCC4=O)c4ccccc43)cc2)cc1	-0.6	14.0
38	COc1cccc([C@]2(O)CCCC[C@H]2CN(C)C)c1	0.5	-1.2
39	CCCCC(CC)CNC1CCN(C(C)C)CC1 (stereo not given)	-0.1	-3.4
40	O=P(NS(=O)(=O)c1ccc(Br)cc1)(Oc1ccccc1)Oc1ccccc1	-3.8	-9.1
41	O=P(Nc1cccc(F)c1)(Oc1ccccc1F)Oc1ccccc1F	7.8	11.5
42	Cc1ccnc(CC(C)N(C)Cc2ccc3c(C)cc(=O)oc3c2)c1 (stereo not given)	-2.6	-9.5
43	CCOC(=O)c1ccc(-c2ccc(C=C3C(=O)NC(=O)NC3=O)o2)cc1	-10.3	-12.9
44	CC(C)C(Br)C(=O)NC(N)=O (stereo not given)	-9.3	-20.9
45	CC(C)N1CCC(c2ccccc2)C1 (stereo not given)	-4.2	-6.0
46	COc1ccccc1CC(=O)N1CCN(Cc2ccc(-c3noc(-c4cccc(C(F)(F)F)c4)n3)cc2)CC1	2.2	-1.0
47	ON1C2CCCCC2N(O)C1c1ccccc1 (stereo not given)	-10.1	-13.7
48	Cc1nc(N2CCCN3CCC[C@H]3C2)c2cnn(C)c2n1	6.1	4.8
49	CC1Cc2cc3c(cc2C(c2ccc(N)cc2)=NN1)OCO3 (stereo not given)	-6.9	-6.5
50	CCOc1ccc(NC(=O)N2CCN(CCOC(c3ccccc3)c3ccc(F)c(F)c3)CC2)cc1 (stereo not given)	0.2	5.7

Profiles from above. Values in the order: NPYLR7 agonist | NPYLR7 agonist max-min
CCOC(=O)c1ccc(-c2ccc(C=C3C(=O)NC(=O)NC3=O)o2)cc1 as listed: -10.3 | -12.9
CN1C(=CP(=S)(C2CCCCC2)N2CCOCC2)C(C)(C)c2ccccc21 (stereo not given) as listed: 4.1 | 1.7

Continuation:
cpd	mol	NPYLR7 agonist	NPYLR7 agonist max-min
51	CC(=O)OC(C)(C)C(=O)N1CCN(CCOC(c2ccc(F)cc2)c2ccc(F)cc2)CC1	17.2	13.3
52	C[C@]12CC3SC3C[C@@H]1CC[C@@H]1[C@@H]2CC[C@]2(C)[C@@H](O)CC[C@@H]12 (stereo not given in full)	14.2	0.6
53	Cc1cc2nc(NC(=O)c3ccn(C(C)C)n3)sc2cc1C	-4.1	-6.0
54	CC1(C)CC2=NN(c3ccccc3)P(=S)(OC(C)(C)C)C2=C(N2CCCCC2)C1 (stereo not given)	6.0	5.3
55	CC(Cn1cncn1)NCc1csc2c1CCCC2 (stereo not given)	6.3	3.6
56	CCOP(=S)(NC(C)C)OCC	-16.0	-20.9
57	COC(=O)C1C2c3ccccc3OC1(C)N=c1s/c(=C\c3ccoc3)c(=O)n12 (stereo not given)	0.4	2.1
58	C[C@](O)(COc1ccc(C#N)cc1)C(=O)Nc1ccc(C#N)c(C(F)(F)F)c1	-9.0	-13.4
59	C=CCOC(=O)C1=C(C)OC(=N)C(C(=O)OCc2ccccc2)C12C(=O)Nc1ccccc12 (stereo not given)	-6.9	-14.0
60	S=C(NCCN1CCOCC1)NNP(=S)(c1ccccc1)c1ccccc1	1.3	-0.5
61	CCC(C)NC(=O)CN1C(=O)CSC(c2ccc(OC)c(OC)c2)c2c(C(C)(C)C)nn(C)c21 (stereo not given)	-2.2	5.8
62	CCN(C)c1ccnc(N2CCC3(CC2)CN(C)CCN3C)n1	24.4	9.0
63	COc1ccc2c(c1)c(C(=O)NCc1cnc(C)cn1)nn2Cc1ccc(OCc2ccccc2)cc1	8.1	6.9
64	CCCCCCCCCCC(=O)N1CCN(CCOC(c2ccccc2)c2ccccc2)CC1	4.2	0.7
65	CC1CCC(C#N)(N(C)C(=O)CN2CC=C(c3ccccc3)CC2)CC1 (stereo not given)	3.6	0.5
66	CN1CCc2[nH]c(=S)c(C#N)c(-c3cccs3)c2C1	3.5	-1.4
67	CC(C)NP(=O)(c1ccccc1)C(C)(C)C (stereo not given)	-8.1	-9.9
68	O=C(O)c1cn(CC2CCCCC2)nn1	7.2	5.5
69	COc1cc2c(c(OC)c1OC)-c1ccc(O)c(=O)cc1[C@@H](N)CC2	-0.3	0.2
70	CC(=O)OC(C)(C)C(=O)N1CCN(CCOC(c2ccccc2)c2ccccc2)CC1	16.2	28.1
71	COc1ccc(OC)c(C2SCC(=O)N(CC(N)=O)c3c2c(-c2ccccc2)nn3-c2ccc(C)cc2)c1 (stereo not given)	5.0	16.5
72	CCc1nc(C)sc1CN1CCC2(CC1)C(=O)N(C)c1ccccc12	4.5	2.7
73	Cc1cccc(Cn2cccc(C(=O)Nc3ccc(F)c(F)c3F)c2=O)c1	17.3	9.1
74	N#CC1(c2ccccc2)CCN(C(=O)C2CC=CCC2C(=O)NCC2CCCCC2)CC1 (stereo not given)	-4.2	-1.7
75	Clc1snnc1CN1CC2CCCCCC21 (stereo not given)	-0.9	-2.8

A second format for some results above:
18: CC(CNc1cncc(Cl)n1)N1CCN(C)CC1 (stereo not given)
50: CCOc1ccc(NC(=O)N2CCN(CCOC(c3ccccc3)c3ccc(F)c(F)c3)CC2)cc1 (stereo not given)
69: COc1cc2c(c(OC)c1OC)-c1ccc(O)c(=O)cc1[C@@H](N)CC2
61: CCC(C)NC(=O)CN1C(=O)CSC(c2ccc(OC)c(OC)c2)c2c(C(C)(C)C)nn(C)c21 (stereo not given)

| compound no. | 18 | 50 | 69 | 61 |
| --- | --- | --- | --- | --- |
| NPYLR7 agonist | 0.4 | 0.2 | -0.3 | -2.2 |
| NPYLR7 agonist max-min | -2.5 | 5.7 | 0.2 | 5.8 |

Continuation:
cpd	mol	NPYLR7 agonist	NPYLR7 agonist max-min
76	COc1ccc(CN2CCNCC2)c(OC)c1OC	-0.9&0.5	-8.5&-2.0
77	N#CCN1CCN(c2ccc(C(F)(F)F)cc2)CC1	1.0	4.0
78	CN(C)C(Cn1cnnc1)c1ccccn1 (stereo not given)	24.9	10.1
79	Cc1cccc(Cn2cccc(C(=O)Nc3ccccc3Cl)c2=O)c1	16.6	9.8
80	N#Cc1ccc(S(=O)(=O)NC(=O)CC2CCCC2)cc1Cl	6.2	1.9
81	COCC(C)(C)CNC(=O)C1C(C)(C)C1(C)C	3.7	5.4
82	CCOc1ccc(NC(=O)N2CCN(CCOC(c3ccc(F)cc3)c3ccc(F)cc3)CC2)cc1	21.9	21.3
83	CC(C)N(C(=O)CN1CC=C(c2c[nH]c3cc(F)ccc23)CC1)C(C)C	7.7	2.3
84	CC(C)N(CCNC(=O)CN1CCCC1=O)C(C)C	-7.7	-12.2
85	O=C(COc1ccc(Cl)cc1)N1CCCC(N2CCN(CCOc3ccccc3)CC2)C1 (stereo not given)	3.8	13.7
86	Cc1ccc(S(=O)(=O)N(CCS(=O)(=O)F)CCS(=O)(=O)F)cc1	-5.6	-11.5
87	O=C(Cc1ccccc1)N1CCCC(N2CCN(c3ccc(F)cc3)CC2)C1 (stereo not given)	0.0	-3.0
88	Clc1ccc(Cl)c(C2NCCc3[nH]cnc32)c1 (stereo not given)	6.9	4.7
89	CCOCCCn1c(=N)c(C#N)cc2c(=O)n3ccccc3nc21	0.5	6.8
90	O=C1CCCCCN1CC(=O)N1C[C@H](c2ccccc2)[C@@H]2[C@H]1C1CCN2CC1	9.9	8.2
91	CN(C)C(=O)Oc1c(Cl)cc(Cl)c2cccnc12	0.3	-0.8
92	CC(C(=O)OC1CC2CCC(C1)N2C)c1ccc(Br)cc1 (stereo not given)	-13.4	-17.2
93	O=S(=O)(c1cccc(OC(F)(F)F)c1)N1CCN(CCOC(c2ccccc2)c2ccccc2)CC1	4.3	0.5
94	CC12CN3CC(C)(CN(C1)C31CCSCC1)C2=O	4.8	3.7

Some of the entries so far, with one line to a screen.
[15] CC1(C)CC2=NN(c3ccccc3)P(=S)(Nc3nccs3)C2=C(N2CCOCC2)C1 (stereo not given)
[77] N#CCN1CCN(c2ccc(C(F)(F)F)cc2)CC1
[24] O=C1CC[C@@]2(O)[C@H]3Cc4ccc(O)c5c4C2(CCN3CC2CC2)[C@H]1O5
[21] CNC(=O)[C@@H]1[C@@H](c2ccccc2)CN2CCN(S(C)(=O)=O)C[C@H]12
[9] CCOC(=O)C1(CCOc2ccccc2)CCN(Cc2ccc(C)s2)CC1
[1] CCCNc1ncc(CN2CCC3(CCCN(C)C3=O)C2)cn1 (stereo not given)
[27] O=Cc1cn(Cc2ccc(Cl)cc2)c2ccccc12

Assay by compound,15,77,24,21,9,1,27
NPYLR7 agonist,5.6&-1.9,1.0,-7.5,2.4,29.1&6.8,-1.8,-16.5
NPYLR7 agonist max-min,7.0&-2.9,4.0,-12.1,13.0,19.4&9.4,-0.1,-22.6
